Screens from PubChem.
T cruzi repl: T. cruzi replication inhibition | hit rate 1.4% among 300,000 | T. cruzi beta-gal in NIH3T3, luminescence, 90 h | AID 1885 | inhibition, % (concentration not given with the values);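 active means mean inhibition across valid replicates above about 55%, limit read from the data; inconclusive means mean below that limit but half or more replicates reach it; inactive means mean below it, under half of replicates reach it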;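 further: signal also drops with host cell toxicity which is not excluded here; 0% = plate median of DMSO wells and 100% = zero luminescence signal; higher percent means less beta-gal luminescence so fewer parasites; stock transfer was 50 nL into about 50 µL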
RanGTP-Imp inh: disruptors of Ran-importin-beta complex formation – biochemical, FRET, CFP-Ran, YFP-importin-beta, homogeneous, primary screen. cell-free CFP-Ran/YFP-importin-beta FRET ratio. inhibition, % (concentration not given with the values). hit rate 1.1% among 300,000;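 active means most replicates above 15%; inconclusive means exactly half above 15%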;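 further: 0% = DMSO wells and 100% = Ran loaded with GDP instead of GTP; wells of about 40 µL received 100 nL stock; the first replicate is given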
Calb FLC: affects C. albicans growth with fluconazole. C. albicans CaCi-2 (fluconazole-resistant clinical isolate) + fluconazole, Alamar Blue growth, 48 h. growth inhibition, % (test concentration not listed). hit rate 0.57% among 300,000;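 active means most replicates above 75%; inconclusive means exactly half above 75%; inactive means most below 75%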;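 further: all wells also contain fluconazole at 8 µg/ml as a sub-toxic cotreatment; 0% = median of DMSO wells and 100% = median of geldanamycin control wells; wells of about 8 µL received 7.5 nL stock; the first replicate is given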
rRNA inh HTS: inhibitors of bacterial rRNA selective over humanized ribosomes; AID 720706; GFP signal change (wild-type ribosome), % (no concentration beside the values); E. coli WT GFP vs humanized-ribosome RFP mutants, fluorescence, 24 h; stronger effect = lower value; DMSO median 0, no signal -100; hit rate 1.6% among 350,000;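 active means significant combined selectivity score with lowered wild-type GFP, culture density cut under 30%, mutant RFP and density less affected; inactive means any of these conditions unmet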; further: one replicate is shown; some compounds called inactive have numbers as strong as hits
Bfl-1 A1 inh: inhibitors of the anti-apoptotic protein A1, read as caspase activation; caspase activation, % (concentration not given with the values); hit rate 0.066% among 330,000; MEF A1-2A-BIM cells, Caspase-Glo 3/7 luminescence, 3 h; percent of clofoctol response, vehicle zero;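 active means over half of replicate activation scores above 10%, or exactly half above 10 with the replicate mean above 10; inconclusive means replicate mean below 10 yet half the replicates above 10; inactive means over half of replicates below 10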;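 further: wells of about 30 µL received 50 nL stock; many hits fall short of the cut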
Beta cell apopt: beta cell apoptosis inhibition; protection from apoptosis, % (no concentration beside the values); hit rate 0.8% among 300,000; INS-1E cytokine-induced death, ATP luminescence, 48 h; percent of positive-control rescue, neutral wells zero; AID 435005;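 active means all replicates at 75% or more, or half of them and the mean; inconclusive means half reach 75% but not the mean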;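 further: 0% = cytokine-treated negative control wells and 100% = positive control rescue; higher means more ATP so stronger rescue from cytokine killing; wells of about 40 µL received 100 nL stock; the first replicate is given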
Vif A3G: inhibitors of Vif binding to APOBEC3G peptide, primary screen, biochemical, TR-FRET, GST-Vif 1-94, biotin-A3G peptide, dose response retest (AID 1117319); hit rate 0.57% among 260,000; inhibition, %, or IC50 in µM where a hit was titrated; TR-FRET GST-Vif / biotin-A3G peptide binding; higher % means a stronger effect; test concentration not given here; strong numbers were not always called active;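 active means above the screen mean plus three standard deviations and confirmed in dose response; inconclusive means results disagree or hit not tested in dose response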;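 further: Vif residues 1-94 fused to GST binding biotinylated APOBEC3G peptide 110-148; 0% = full assay without inhibitor and 100% = GST in place of GST-Vif; retest series ran down from 100 µM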
AF4-AF9 inh: blocks AF4 peptide binding to human AF9 | hit rate 0.47% among 350,000 | AlphaScreen, biotin-AF4 peptide binding to FLAG-AF9 | inhibition, % at 10 µM;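 active means every replicate reaching a set inhibition limit, whatever the replicate mean, cut at about 25% in these data; inconclusive means mean inhibition reaches that limit but some replicates miss it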;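 further: 0% = plate neutral control median and 100% = total signal loss; the record names both 10 and 1 µM as test concentration; the first replicate is given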
Target sequence (P42568 whole entry, looked up): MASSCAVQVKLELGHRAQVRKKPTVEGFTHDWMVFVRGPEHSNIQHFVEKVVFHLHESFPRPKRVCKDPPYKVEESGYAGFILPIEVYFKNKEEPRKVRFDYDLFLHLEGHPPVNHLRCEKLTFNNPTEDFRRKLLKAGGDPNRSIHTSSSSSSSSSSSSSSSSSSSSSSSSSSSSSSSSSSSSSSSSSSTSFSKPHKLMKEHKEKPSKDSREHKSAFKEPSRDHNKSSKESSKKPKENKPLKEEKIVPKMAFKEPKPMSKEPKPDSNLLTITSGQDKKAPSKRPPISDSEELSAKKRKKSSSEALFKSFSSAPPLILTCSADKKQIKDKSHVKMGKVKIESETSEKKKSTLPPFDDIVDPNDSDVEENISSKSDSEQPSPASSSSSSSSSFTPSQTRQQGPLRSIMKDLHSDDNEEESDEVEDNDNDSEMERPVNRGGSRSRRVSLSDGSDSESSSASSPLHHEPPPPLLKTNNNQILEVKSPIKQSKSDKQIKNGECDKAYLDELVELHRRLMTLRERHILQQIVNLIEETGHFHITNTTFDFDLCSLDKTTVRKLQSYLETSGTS
rRNA inh HTS OD600: also measured in rRNA inh HTS; calls as there; OD600 change, %; measured here: OD600 growth;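 optical density of the mix in the first replicate; 0 = DMSO median and -100 = no signal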
rRNA inh HTS RFP: further read-out of rRNA inh HTS, marked with its call; RFP signal change, %; measured here: RFP humanized mutant strains;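 first replicate; 0 = DMSO median and -100 = no signal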
An asterisk follows results filed as active; ? = inconclusive; . = not tested or not shown; & = joins results of further samples.

SMILES	T cruzi repl	RanGTP-Imp inh	Calb FLC	rRNA inh HTS	rRNA inh HTS OD600	rRNA inh HTS RFP	Bfl-1 A1 inh	Beta cell apopt	Vif A3G	AF4-AF9 inh
Cc1ccc(C(C)(C)C)c(OCCN2CCCC2)c1	42	-0.4	-29	.	.	.	0.4	-1	-1%	.
c1ccc(C2=Nc3ccccc3NC(c3ccccc3)C2)cc1 (stereo unspecified)	11	-3.8	-20	.	.	.	-9.1	6	3%	.
CCc1nc2oc(C(=O)c3ccccc3)c(N)c2c2c1COC(C)(C)C2	-1	-3.1	2	.	.	.	-1.2	-4	19%	.
Cc1nc2sc(C(c3ccccc3)N3CCN(CCO)CC3)c(O)n2n1 (stereo unspecified)	-27	?	-1	-3	5	-4.5	-0.9	-4	.	-0.8
Fc1ccccc1CSc1ccc(-c2ccco2)nn1	.	.	-17	2	2	1.2	-4.3	5	-15%	-1.0
CC(=O)N1CCOc2ccc(S(=O)(=O)NCC3CCC(C(=O)NCCC(C)C)CC3)cc21 (stereo unspecified)	-15	-0.8	31	-1	-4	2.0	1.2	4	2%	-8.5
O=C(c1cc2ccccc2cc1O)N1CCN(c2ccccn2)CC1	-3	-6.1	11	-3	4	-0.7	-0.4	-3	.	1.9
CC(=O)C1=C(O)C(=O)N(c2cccc(C(=O)O)c2)C1c1ccc(F)cc1 (stereo unspecified)	-14	0.3	?	15	10	5.0	0.0	-9	.	3.6
O=C(O)c1ccc(-c2noc(-c3ccc(F)cc3)n2)cc1	-24	0.1	15	-12	-13	-16	3.2	1	.	-1.3
C[C@@H]1COC(=O)[C@@H](Cc2ccc(F)cc2)C/C=C\C[C@H](CC(=O)N(CCO)Cc2ccccc2)C(=O)N1	.	.	.	4	0	4.4	0.3	-7	4%	0.4
COc1ccc2c(c1OC)C[N+]1([O-])CCc3cc4c(cc3C1C2)OCO4 (stereo unspecified)	2	11	1	7	3	-7.5	0.2	-8	.	-1.8
COc1ccc(Br)cc1C1CC(=O)N2CN(C)CSC2=C1C#N (stereo unspecified)	2	-5.7	4	3	1	1.4	0.0	-5	12%	0.3
O=C(CN1CCOCC1)Nc1ccccc1F	-16	2.0	-5	5	8	-1.9	0.9	.	0%	-5.8
Cc1scc(C(=O)NNC(=S)NCc2ccccc2)c1C	2	-2.5	6	-25	-39	8.7	0.3	0	.	-2.4
Cc1ccc(S(=O)(=O)NC(C)(C)CN2CCc3ccccc3C2)cc1	9	7.8	-5	0	3	-0.9	-0.3	4	15%	-7.7
Cc1ccc(OCC(=O)NNC(=O)C(=O)NC(C)(C)C)cc1	23	-1.8	-5	.	.	.	-0.6	-4	.	.
Cc1ccc2nc(SCC(=O)N3CCC(Cc4ccccc4)CC3)nc(=O)n2c1	19	-1.1	8	-13	-24	0.5	-1.0	4	-1%	-1.7
COc1ccc(/C=N/Nc2cc(N3CCOCC3)nc(C)n2)c(OC)c1	15	-3.3	-20	2	9	3.9	0.5	0	.	7.6
CC(C)=NOc1nc(N2CCOCC2)nc(N2CCOCC2)n1	-11	8.5	-5	7	10	-0.4	-0.7	-6	.	2.3
Cc1nc2ccccc2c(=O)n1NCc1cccs1	-13	0.9	5	.	.	.	0.7	-1	-6%	.
O=C(Nc1ccc2c(c1)OCO2)C1CCN(C(=O)c2ccc([N+](=O)[O-])cc2)CC1	1	-2.0	6	7	9	2.5	1.5	-2	?	-2.7
COCCCNC(=O)CNC(=S)N(Cc1ccccc1F)C1CCCCC1	-4	3.6	?	.	.	.	0.2	-3	-6%	.
O=C(O)CCCC[C@@H]1SC[C@@H]2NC(=O)N[C@@H]21	-9	?	-2	5	-4	-4.9	-0.2	-4	.	97*
O=C(CN1C(=O)NC2(CCCC2)C1=O)NCc1ccc(F)cc1	.	.	.	0	3	-0.5	-1.4	4	0%	-7.8
CCn1c(=O)c2c(nc3n2CCCN3CCc2ccccc2)n(C)c1=O	3	-14	-2	.	.	.	-0.1	0	1%	.
COc1ccc([C@H]2CC(=O)C=C(c3cccc(NC(C)=O)c3)C2)cc1	.	.	.	-11	-7	-3.1	-0.7	-1	.	-0.7
CCOCCCn1c(=NC(=O)c2cccs2)c(C#N)cc2c(=O)n3cccc(C)c3nc21	21	121*	2	16	12	1.8	0.2	5	10%	-3.2
O=CN1CCN(CC(O)Cn2c3ccccc3c3ccccc32)CC1 (stereo unspecified)	10	0.1	-4	-1	6	-1.2	1.1	-7	-10%	-9.2
Cc1cc(NC(=O)COc2ccc(Cl)cc2Cl)n(-c2ccccc2)n1	8	0.7	4	.	.	.	0.0	7	2%	.
CSCCC(NC(=O)c1ccco1)C(=O)OCC(=O)Nc1ncc(Cl)c(C)c1Cl (stereo unspecified)	0	1.1	1	.	.	.	0.3	-4	-4%&3%	.
CNC(=O)NC(=O)Cn1nc2n(c1=O)-c1ccccc1SC2	-14	2.8	-13	9	8	-1.5	-0.2	-3	7%	-12
O=C(NC1CCCCC1)c1nn2c(C(F)(F)F)cc(-c3ccco3)nc2c1Br	-3	-0.2	-1	.	.	.	-0.6	4	14%&21%	.
C=CCNC(=O)N1CCCC(C(=O)c2cccc(OC(C)C)c2)C1 (stereo unspecified)	3	0.6	1	3	4	-0.9	-0.2	.	-6%	0.9
COc1ccc(C(=O)NCC(=O)Nc2ccccc2)cc1OC	-8	6.8	9	.	.	.	0.1	-11	6%	.
Fc1ccc(/C=C\c2nccc3c2[nH]c2ccccc23)cc1	25	4.0	31	9	15	4.7	2.3	3	2%	-2.9
Cc1ccc(C)c(N2CCN(c3ccc([N+](=O)[O-])cn3)CC2)c1	14	0.3	-9	5	11	2.0	1.7	-5	-4%	0.5
CCOC(=O)Nc1nc(C)c(C(=O)N(C)C)s1	-4	2.3	-3	.	.	.	-0.5	13	-2%	.
Cc1cccc2nc(-c3ccco3)c(Nc3ccc4c(c3)OCO4)n12	14	6.0	8	-4	-9	3.1	-0.3	1	.	23
CCCCCC(=O)N/N=C/c1cc(Br)c(O)c(OC)c1	-4	5.9	0	1	2	2.4	1.1	.	-3%	-0.8
CC(=O)c1ccc(N2CCN(C(=O)c3cc4c(C)nc5ccccc5c4o3)CC2)cc1	5	2.0	-1	5	15	2.6	-0.8	10	.	-2.7

Two successive records out of the list so far, for reference:
SMILES	T cruzi repl	RanGTP-Imp inh	Calb FLC	rRNA inh HTS	rRNA inh HTS OD600	rRNA inh HTS RFP	Bfl-1 A1 inh	Beta cell apopt	Vif A3G	AF4-AF9 inh
CNC(=O)NC(=O)Cn1nc2n(c1=O)-c1ccccc1SC2	-14	2.8	-13	9	8	-1.5	-0.2	-3	7%	-12
O=C(NC1CCCCC1)c1nn2c(C(F)(F)F)cc(-c3ccco3)nc2c1Br	-3	-0.2	-1	.	.	.	-0.6	4	14%&21%	.

(listing goes on)
SMILES	T cruzi repl	RanGTP-Imp inh	Calb FLC	rRNA inh HTS	rRNA inh HTS OD600	rRNA inh HTS RFP	Bfl-1 A1 inh	Beta cell apopt	Vif A3G	AF4-AF9 inh
CCOC(=O)Cc1csc(NC(=O)COc2cc(C)cc(C)c2)n1	3	7.9	-10	-16	-16	-7.1	-0.7	-3	-2%	-1.9
CCN1C(=O)[C@H]2[C@@H](c3ccc(-c4ccc(F)cc4)c(OC)c3)N[C@@](Cc3ccccc3)(C(=O)OC)[C@H]2C1=O	.	.	.	7	9	0.6	0.7	8	.	0.3
COc1ccc([N+](=O)[O-])cc1NC(=O)C(C)Sc1ccc(C)cc1 (stereo unspecified)	2	3.7	-6	-13	-16	-5.9	0.1	0	.	-3.1
CCN1CCN(CCOc2ccccc2OCc2ccccc2)CC1	20	1.6	-31	3	3	-4.2	-0.2	-6	28%	1.5
Cc1ccc(S(=O)(=O)NCc2ccc(C(=O)NCc3cccnc3)cc2)cc1	2	-1.4	15	.	.	.	-0.1	3	.	.
O=C(Cc1ccc(S(=O)(=O)N2CCCC2)s1)N1CCN(c2ccccc2)CC1	4	2.1	9	-5	1	0.5	0.2	1	32%	1.8
Cc1c(OCc2ccc(C(=O)O)cc2)ccc2c(-c3ccccc3)cc(=O)oc12	3	-0.1	-6	5	-8	2.3	0.1	10	-3%	2.8
COc1ccccc1N1CCN(Cc2ccc(OC)c(OC)c2OC)CC1	16	-4.3	-26	.	.	.	1.0	-2	2%	.
O=C(OCc1ccc([N+](=O)[O-])cc1)c1ccccn1	-15	-4.9	-4	6	0	-1.4	-0.3	-3	1%	-1.6
COc1ccccc1CCN1CCCC(CN(C)Cc2ccc(OCCO)cc2)C1 (stereo unspecified)	?	0.5	-8	20	20	-0.2	0.1	.	-2%	6.1
CC(C)(C)c1ccc(/C=N/NC(=O)c2ccccn2)cc1	7	-0.1	0	2	-14	-6.2	-9.2	6	4%	-1.6
COc1ccc(OCC(=O)NNC(=O)c2cccc(S(=O)(=O)N(C)C)c2)cc1	-13	3.1	-6	.	.	.	0.1	-10	22%	.
Cc1nn(CCCC(=O)Nc2nccs2)c(C)c1[N+](=O)[O-]	-5	-1.2	5	.	.	.	-0.5	0	4%	-1.7
Cc1cnc(NC(=O)COc2cccc3c2OC(C)(C)C3)s1	0	-1.4	-4	.	.	.	0.6	1	9%	.
Cc1ccccc1CSCc1nc2ccccc2[nH]1	5	-0.8	5	-22*	-17*	-0.4*	1.3	5	.	-0.9
O=c1cc(CO)oc(CN2CCN(CCO)CC2)c1O	-10	5.9	-2	.	.	.	0.5	-4	4%	.
COc1ccc(OC)c(C(c2nnnn2CC2CCCO2)N2CCN(C)CC2)c1 (stereo unspecified)	-4	-1.2	4	.	.	.	0.3	3	-1%	.
COc1ccc(C(=O)N/C(=C\c2cn(S(=O)(=O)N(C)C)c3ccccc23)C(=O)N2CCN(C)CC2)cc1	6	-3.1	6	-5	-8	-2.9	-0.1	-15	-6%	2.9
CC(C)CNC(=O)CC(=O)N/N=C/c1cccs1	-18	-0.5	-9	.	.	.	-0.2	-3	-3%	.
Cc1ccc(-c2ccccc2)n1-c1cccc(C(=O)O)c1	-2	0.7	0	9	2	11	0.2	-12	1%	-26
CC[C@@]1(C(=O)OC)N[C@H](CN(C)S(=O)(=O)c2ccc(C(C)(C)C)cc2)[C@@H]2C(=O)N(Cc3ccccc3)C(=O)[C@@H]21	.	.	.	13	6	0.3	0.9	-7	4%	-0.9
CC[C@H](C)C(C(=O)N1CCN(C(=O)OC(C)(C)C)CC1)n1cc(C(CO)NC(=O)OC(C)(C)C)nn1 (stereo partly specified)	-16	-1.2	-8	3	5	-2.1	-0.1	-3	-6%	-3.9
CC(C)NC(=O)c1ccc(Sc2ccccc2)c([N+](=O)[O-])c1	28	-7.9	34	.	.	.	0.3	3	8%	.
CN(CC(=O)NCc1ccccn1)S(=O)(=O)c1ccccc1	-14	-0.5	11	.	.	.	0.2	-1	7%	.

The list is partial; rates above refer to the full screens.
